VDR inhibitor: inhibitors of human vitamin D receptor | hit rate 0.93% among 400,000 | VDR-SRC2-3 peptide fluorescence polarization, 2 h | Potency, µM, without a hit: max response, negative = inhibition, most hits filed as inhibitors; active means well fitted inhibition curve with a large enough effect; inconclusive means small, poorly fitted or top-dose-only effect, or another doubt; inactive means no such curve, though single readings can be large or run the other way; further: series mostly up to about 120 µM
Target sequence (P11473 whole entry, looked up): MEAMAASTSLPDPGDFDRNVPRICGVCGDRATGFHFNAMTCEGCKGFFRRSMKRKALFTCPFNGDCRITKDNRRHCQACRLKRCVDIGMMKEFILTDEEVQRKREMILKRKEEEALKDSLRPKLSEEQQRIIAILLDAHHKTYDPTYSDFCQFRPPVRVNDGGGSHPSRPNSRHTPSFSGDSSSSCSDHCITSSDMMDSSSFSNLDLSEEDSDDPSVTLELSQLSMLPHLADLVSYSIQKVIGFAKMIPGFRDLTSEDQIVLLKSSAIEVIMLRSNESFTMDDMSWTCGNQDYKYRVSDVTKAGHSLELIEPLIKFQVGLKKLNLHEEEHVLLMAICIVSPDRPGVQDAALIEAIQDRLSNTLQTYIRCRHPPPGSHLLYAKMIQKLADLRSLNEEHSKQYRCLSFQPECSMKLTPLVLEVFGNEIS
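VDR–SRC2-3 interaction, FP format. Cmpds 23 nl via pintool, brief spin, 2 h ambient incubation.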
The depositor's hits bear a star; & = joins results of further samples. On the % scale 0 is the no-effect control and ±100 the full control effect; potency means the concentration at half of the fitted maximal effect. These rows are one share of the data. The share of hits here may be higher or lower than overall.

How did C#CCOCCOCCOCCNc1nc(N2CCOCC2)nc(N2CCN(C(=O)CCCCCCCCCCNC(=O)Cn3cc(CCCCCN)nn3)CC2)n1 do in these assays?
VDR inhibitor: -9%

Results for COc1ccc(C(=O)C2CCN(C(=O)Nc3ccccc3C)CC2)cc1 ?
VDR inhibitor: 9%

Results for Cc1ccc(OCC(=O)N2CCC(N3CCCCCC3)CC2)cc1 ?
VDR inhibitor: -8%

Results for CN(C)S(=O)(=O)N1CCN(C(=O)c2ccc3c(c2)OCO3)CC1 ?
VDR inhibitor: -4%

How did Cc1cnc(NC(=O)c2ccco2)s1 do in these assays?
VDR inhibitor: 13%

What do the screens show for `C=CCC1=C/C(=C\c2c(N)n3nc(CC(=O)N4CCCC4)sc3nc2=O)C=C(OC)C1=O`?
VDR inhibitor: 3%

Results for CCN(CCn1cccn1)C(=O)CC1C(=O)NCCN1CC1CCCCC1 (stereo unspecified) ?
VDR inhibitor: -6%

How did O=C(CCl)Nc1c[nH]c(=O)[nH]c1=O do in these assays?
VDR inhibitor: 14%

What do the screens show for `Cc1ccc(Cl)cc1NC(=O)C(Cc1ccccc1)NS(=O)(=O)c1cccc2nsnc12` (stereo unspecified)?
VDR inhibitor: -9%

How did O=C(NCc1ccco1)c1ccccc1-c1ccccc1 do in these assays?
VDR inhibitor: 1%

Results for COc1ccc(C(=O)NCC(c2cccnc2)N2CCN(c3ccccc3)CC2)cc1 (stereo unspecified) ?
VDR inhibitor: 9%

Results for CC(=O)c1ccc(S(=O)(=O)N2Cc3ccccc3CC2C(=O)O)cc1 (stereo unspecified) ?
VDR inhibitor: 0%

How did CCOc1ccc(N(Cc2ccccc2)C(=O)c2nc(SCC)ncc2Cl)cc1 do in these assays?
VDR inhibitor: 3%

Results for CC(C)c1ccc(-c2nc(N3CCCCC3)[nH]c(=O)c2C#N)cc1 ?
VDR inhibitor: -5%

Results for O=C(c1ccc(C(F)(F)F)cc1)N1CCC(=O)N([C@H](COCc2ccc(C(F)(F)F)cc2)Cc2ccccc2)CC1 ?
VDR inhibitor: -4%

How did CC(=O)Nc1cccc(NC(=O)CSc2ncc(-c3ccccc3)[nH]2)c1 do in these assays?
VDR inhibitor: -4%

How did COc1cc(C2Sc3ccccc3NC3=C2C(=O)OC3)cc(OC)c1OC (stereo unspecified) do in these assays?
VDR inhibitor: -2%

How did COc1ccc(NC(=O)CSc2nc(-c3cccs3)cc(C(F)(F)F)n2)cc1Cl do in these assays?
VDR inhibitor: -5%

How did CCOC(=O)Nc1oc2ccccc2c(=O)c1C do in these assays?
VDR inhibitor: -2%

Results for CCc1ccc(-c2cc(C)no2)cc1S(=O)(=O)N1CCN(c2ccc(F)cc2)CC1 ?
VDR inhibitor: 7%

Of the compounds above, these contain a CF3 group.
Results for O=C(c1ccc(C(F)(F)F)cc1)N1CCC(=O)N([C@H](COCc2ccc(C(F)(F)F)cc2)Cc2ccccc2)CC1 ?
VDR inhibitor: -4%

How did COc1ccc(NC(=O)CSc2nc(-c3cccs3)cc(C(F)(F)F)n2)cc1Cl do in these assays?
VDR inhibitor: -5%

Next section:
What do the screens show for `Cc1ccccc1NC(=O)CSc1nnc(-c2ccccc2)n1-c1ccccc1`?
VDR inhibitor: 0%

Results for Cc1cc(=O)oc(C)c1C(=O)Nc1cccnc1Cl ?
VDR inhibitor: 6%

How did N#C/C(=C1\CCCN1)c1ccc2ccccc2n1 do in these assays?
VDR inhibitor: 14%

What do the screens show for `CN(C)Cc1ccccc1Sc1ccc(Br)cc1`?
VDR inhibitor: -6%

What do the screens show for `COc1cccc(C(=O)C2CN(c3ccccc3)CC2c2ccc(Cl)cc2)c1` (stereo unspecified)?
VDR inhibitor: inconclusive

Results for Cc1ccc2oc3c(c(=O)c2c1)C(c1ccc(O)cc1)N(Cc1ccc2c(c1)OCO2)C3=O (stereo unspecified) ?
VDR inhibitor: -5%

How did CCOC(=O)C1=C(COc2ccccc2)NC(=O)NC1c1ccc(Br)cc1 (stereo unspecified) do in these assays?
VDR inhibitor: 4%

What do the screens show for `Cc1cccc(-n2c3nc(=O)[nH]c(=O)c-3cc3cc([N+](=O)[O-])ccc32)c1`?
VDR inhibitor: -29%

How did CC1(C)CC(=O)c2cc(OCC(=O)N3CCOCC3)ccc2O1 do in these assays?
VDR inhibitor: -2%

What do the screens show for `Cc1ccc(S(=O)(=O)N2CCN(C(=O)COc3ccc(C)nc3[N+](=O)[O-])CC2)c(C)c1`?
VDR inhibitor: -5%

How did O=C(COC(=O)CCN1C(=O)/C(=C\C=C\c2ccccc2)SC1=S)Nc1cc(F)ccc1F do in these assays?
VDR inhibitor: 11%

Results for COc1ccccc1C(=O)COC(=O)c1cc(=O)[nH]c2ccccc12 ?
VDR inhibitor: 5%

How did CCOc1ccc(CC(=O)NCCc2sc3nc(-c4ccc(OC)cc4)nn3c2C)cc1 do in these assays?
VDR inhibitor: 17%

Results for COc1ccc(Nc2nc(-c3cccnc3)cs2)c(OC)c1 ?
VDR inhibitor: 15%

How did COc1ccc(C(=O)Nc2nnc(S(=O)(=O)N(C)Cc3ccc(F)cc3)s2)cc1OC do in these assays?
VDR inhibitor: -5%

How did COc1ccc(NC(=O)CN2CCN(C3c4ccccc4-c4ccccc43)CC2)c(OC)c1 do in these assays?
VDR inhibitor: -11%

Results for COc1ccc(-n2c(SCC(N)=O)nc3nc4c(cc3c2=O)COC(C)(C)C4)cc1 ?
VDR inhibitor: -8%

How did Cc1ccc(-c2nc(NCc3ccc(F)cc3)n(S(C)(=O)=O)n2)cc1 do in these assays?
VDR inhibitor: 9%

What do the screens show for `CN(C)S(=O)(=O)c1ccc(S(=O)(=O)NCc2ccc3c(c2)OCO3)cc1`?
VDR inhibitor: 5%

How did O=C1CCC(C(=O)OCC(=O)c2c[nH]c3ccccc23)=NN1 do in these assays?
VDR inhibitor: 8%

Results for COc1ccccc1CNC(c1ccccc1)c1ccccc1 ?
VDR inhibitor: -11%

How did O=C(N1CCOCC1)C12CC3CC(C1)CC(n1cnc(Cl)n1)(C3)C2 do in these assays?
VDR inhibitor: -10%

How did Cc1ccc(OCC(=O)OCc2cc(=O)n3c(C)csc3n2)cc1 do in these assays?
VDR inhibitor: -6%

How did COc1ccc(Br)cc1-c1nc2c(c(=O)[nH]c(=O)n2Cc2ccccc2)n1C do in these assays?
VDR inhibitor: -5%

Results for Cc1cc(NC(=O)CSc2cn(CCNC(=O)c3ccccc3)c3ccccc23)no1 ?
VDR inhibitor: -10%

What do the screens show for `CN(C)C(=O)CSc1nnc(C23CC4CC(CC(C4)C2)C3)o1`?
VDR inhibitor: -8%

What do the screens show for `O=C(N/N=C/c1cc([N+](=O)[O-])cc(Br)c1O)C12CC3CCC(CC(C3)C1)C2`?
VDR inhibitor: -12%

How did COc1ccc(C(C)=O)cc1CSCc1cc(C(C)=O)ccc1OC do in these assays?
VDR inhibitor: -1%

What do the screens show for `CCN1C(=O)c2ccccc2S(=O)(=O)c2ccc(C(=O)NCCCN(CC(C)C)CC(C)C)cc21`?
VDR inhibitor: -7%

Results for CCN(C[C@H]1N[C@@](Cc2ccccc2)(C(=O)OC)[C@H]2C(=O)N(Cc3ccccc3)C(=O)[C@@H]12)C(=O)c1ccc(C)cc1 ?
VDR inhibitor: 18%

Results for CN(Cc1ccc2c(c1)OCCO2)C(=O)CN1C(=O)NC2(CCCCC2)C1=O ?
VDR inhibitor: 25%

How did O=C(COc1ccccc1Cl)Nc1ccc2c(c1)OCO2 do in these assays?
VDR inhibitor: -10%

How did O=C(CCc1nc2cccnc2n1Cc1ccccc1)N1CCOCC1 do in these assays?
VDR inhibitor: -2%

How did COc1ccc2c(c1)C(=O)N(c1ccccc1OC)C(=O)C2(C)C do in these assays?
VDR inhibitor: 1%

What do the screens show for `COc1ccc(OC)c(NC(=O)CSc2nc3ccccc3c(=O)n2CCC(=O)NC2CCCCC2)c1`?
VDR inhibitor: 15%

How did O=C(NNC(=O)c1cccc2ccccc12)c1ccc(Cl)cc1 do in these assays?
VDR inhibitor: -20%

What do the screens show for `O=C(O)c1ccc(NC(=S)NC(=O)c2cncc(Br)c2)cc1`?
VDR inhibitor: -4%

How did O=C(CNC(=O)c1ccc(Cl)cc1)OC1CCOC1=O (stereo unspecified) do in these assays?
VDR inhibitor: -12%

What do the screens show for `Cc1ccc(CNC(=O)CCc2c(C)nc3c(c(C)nn3-c3ccc(C)cc3)c2C)cc1`?
VDR inhibitor: -12%

Results for CC1CCCCN1C(=O)Cn1ncc2c3ccccc3n(Cc3ccccc3F)c2c1=O (stereo unspecified) ?
VDR inhibitor: 6%

How did Oc1ccccc1/C=N/Nc1nc2ccccc2o1 do in these assays?
VDR inhibitor: -8%

Results for CCCN(CCC)c1nc2ccccc2nc1C(C#N)C(=O)OC(C)COC (stereo unspecified) ?
VDR inhibitor: -9%

Results for COc1cccc(-n2c(-c3ccc4[nH]c(C)c(C)c4c3)n[nH]c2=S)c1 ?
VDR inhibitor: -15%

Results for CCc1ccccc1NC(=O)C(CC)Sc1ncnc2c1sc1ccccc12 (stereo unspecified) ?
VDR inhibitor: 1%

What do the screens show for `CC(=O)c1sc(N)nc1C`?
VDR inhibitor: 3%

How did O=C(O)C1C2C=CC(C2)C1C(=O)OCc1ccccc1 (stereo unspecified) do in these assays?
VDR inhibitor: 10%

What do the screens show for `CCN(CC)CCCNc1nc(N)c([N+](=O)[O-])c(NCCO)n1`?
VDR inhibitor: -2%

How did CC(NC(=O)CN(C)S(=O)(=O)c1ccc2c(c1)c(=O)n(C)c(=O)n2C)c1ccccc1 (stereo unspecified) do in these assays?
VDR inhibitor: -6%&2%

Results for Cc1cc(C(=O)Nc2ccc(N3CCOCC3)c(Cl)c2)c(C)o1 ?
VDR inhibitor: inconclusive

How did COc1ccc(OC)c(NC(=O)COC(=O)CCC2CCCC2)c1 do in these assays?
VDR inhibitor: inconclusive

Among those listed so far, these have bromine:
What do the screens show for `CN(C)Cc1ccccc1Sc1ccc(Br)cc1`?
VDR inhibitor: -6%

How did CCOC(=O)C1=C(COc2ccccc2)NC(=O)NC1c1ccc(Br)cc1 (stereo unspecified) do in these assays?
VDR inhibitor: 4%

How did COc1ccc(Br)cc1-c1nc2c(c(=O)[nH]c(=O)n2Cc2ccccc2)n1C do in these assays?
VDR inhibitor: -5%

What do the screens show for `O=C(N/N=C/c1cc([N+](=O)[O-])cc(Br)c1O)C12CC3CCC(CC(C3)C1)C2`?
VDR inhibitor: -12%

What do the screens show for `O=C(O)c1ccc(NC(=S)NC(=O)c2cncc(Br)c2)cc1`?
VDR inhibitor: -4%

Following part
Results for CCN(C(=O)COC(=O)c1nn(-c2ccccc2)c(=O)c2ccccc12)C1CCS(=O)(=O)C1 (stereo unspecified) ?
VDR inhibitor: 10%

What do the screens show for `CC1(C)CC2CC(C)(CN2C(=O)c2ccc([N+](=O)[O-])cc2)C1` (stereo unspecified)?
VDR inhibitor: -1%

Results for CCCCNC(=O)CCn1ccc2cc(S(=O)(=O)N3CCCC3)ccc21 ?
VDR inhibitor: -13%

Results for Cn1cc([N+](=O)[O-])c(C(=O)Nc2ccc(-c3nc4ccccc4[nH]3)cc2)n1 ?
VDR inhibitor: -14%

What do the screens show for `Cc1ccc(Cl)cc1N1CCN(C(CC(C)C)c2nnnn2CC2CCCO2)CC1` (stereo unspecified)?
VDR inhibitor: 10%

What do the screens show for `Cc1ccc(S(=O)(=O)Cn2nnnc2CN(Cc2ccco2)Cc2cccs2)cc1`?
VDR inhibitor: 3%

How did Cc1cccc(C)c1OCC(=O)Nc1cccc(NC(=O)c2ccco2)c1 do in these assays?
VDR inhibitor: -9%

How did CNC(=O)CS(=O)CC(=O)Nc1cc(OC(C)C)c(Cl)cc1Cl (stereo unspecified) do in these assays?
VDR inhibitor: 17%

How did CSc1nsc(SCC(=O)Nc2ccccc2)n1 do in these assays?
VDR inhibitor: -1%

How did CSc1cccc(NC(=O)C(=O)NCc2ccccc2)c1 do in these assays?
VDR inhibitor: -12%

Results for C=CCN(C(=O)c1csnn1)C(C(=O)NC1CCCC1)c1ccccc1F (stereo unspecified) ?
VDR inhibitor: -10%

What do the screens show for `Cc1ccc2nc(NC(=O)c3ccc4ncsc4c3)sc2c1`?
VDR inhibitor: 4%

What do the screens show for `Cc1ccc(C(C(=O)NC2CCCCC2)N(C)Cc2ccccc2)cc1` (stereo unspecified)?
VDR inhibitor: 10%

Results for COCCCn1c(SCc2cc(=O)[nH]c3ccccc23)nnc1-c1ccco1 ?
VDR inhibitor: -3%

Results for O=C(NC1CCNCC1)C1CCCCC1 ?
VDR inhibitor: 14%

What do the screens show for `O=C(Nc1ccc([N+](=O)[O-])cc1)C(=O)Nc1cccc(C(=O)O)c1`?
VDR inhibitor: -17%

How did O=c1cnc2cnc(OCc3ccccc3)nc2n1CCc1ccccc1 do in these assays?
VDR inhibitor: -12%

What do the screens show for `CC(=O)Nc1ccc(S(=O)(=O)NCCC(=O)OCC(=O)NCc2ccccc2)cc1`?
VDR inhibitor: 16%

How did COc1ccc(NC(=O)CCCCC(=O)Nc2ccc(OC)cc2OC)c(OC)c1 do in these assays?
VDR inhibitor: -2%

How did Cc1cc(OCc2cc(C(=O)N3CCCCCC3)no2)cc(C)c1Cl do in these assays?
VDR inhibitor: 1%

Results for O=C(Oc1ccnc2cc(Cl)ccc12)N1CCCCCC1 ?
VDR inhibitor: -20%

Results for c1ccc(-c2csc(-n3cccn3)n2)cc1 ?
VDR inhibitor: 3%

What do the screens show for `COc1cccc(C2NC(=O)c3ccccc3O2)c1OCc1ccccc1F` (stereo unspecified)?
VDR inhibitor: 5%

Results for Cc1ccc2cccc(Oc3ccc([N+](=O)[O-])cc3[N+](=O)[O-])c2n1 ?
VDR inhibitor: -2%

Results for Cc1ccc(Cl)cc1N1CCN(C(=O)c2cc3c(=O)oc4ccccc4c3s2)CC1 ?
VDR inhibitor: -2%

Results for CC1CCN(C(=S)NC(=O)c2ccccc2)CC1 ?
VDR inhibitor: 6%

Results for O=[N+]([O-])c1cccc(S(=O)(=O)Nc2ccc(S(=O)(=O)NCC3CCCO3)cc2)c1 (stereo unspecified) ?
VDR inhibitor: 18%

Screening results as filed in PubChem.
